From PubChem
SARS PLP yeast: qHTS of Yeast-based Assay for SARS-CoV PLP; Potency, µM (highest dose often 32.9 µM), for inactives: at the top dose activity, positive = growth rescue; actives 0.19% (n = 330,000); S. cerevisiae expressing SARS-CoV PLpro, growth rescue; control for the full effect not named in the record; active means well fitted rising curve with a large enough effect; inconclusive means small, poorly fitted or top-dose-only effect; inactive means no such curve, though single readings can be large or run the other way; further: 0% is about no effect; nearly all actives have a fitted effect of over 55% in size; growth read by luminescence after 48 h
RE007 growth inh: qHTS Assay for Inhibitors of the HIV-1 protein Vpr | AID 651644, 2012 | actives 0.21% (n = 360,000) | Potency, µM (titrated, usually from 92.2 µM), for inactives: at the top dose activity change, negative = less growth | S. pombe RE007 Vpr strain, BacTiter-Glo ATP luminescence, 24 h; control for the full effect not named in the record; active = well fitted falling curve with a large enough effect; inconclusive = small, poorly fitted or top-dose-only effect; inactive = no such curve, though single readings can be large or run the other way;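 further: on the % scale 0 is the no-effect control and ±100 the full control effect; nearly all actives have a fitted effect of over 50% in size; the assay follows cell death caused by Vpr and the record does not say whether a fall means rescue or toxicity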
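Fission yeast RE007 carrying one integrated HIV-1 vpr copy, seeded at OD 0.01 in PMG+AL medium with 23 nL pinned compound. Grown 24 h at 30 degrees; viability read by BacTiter-Glo luminescence after 5 min.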
Cruzain inh Det: qHTS Assay for Promiscuous and Specific Inhibitors of Cruzain (with detergent) | Cruzipain (Trypanosoma cruzi), P25779 | purified cruzain, Z-FR-AMC fluorescence, 0.01% Triton | Potency, µM, for the others: max response, negative = inhibition, usual class: inhibitors | actives 0.43% (n = 200,000);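 further: plate controls were neutral wells for no effect and buffer without enzyme for full effect; nearly all actives have a fitted effect of over 40% in size; top concentration of the series not given in the record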
Target sequence (P25779 123-467 limits assumed): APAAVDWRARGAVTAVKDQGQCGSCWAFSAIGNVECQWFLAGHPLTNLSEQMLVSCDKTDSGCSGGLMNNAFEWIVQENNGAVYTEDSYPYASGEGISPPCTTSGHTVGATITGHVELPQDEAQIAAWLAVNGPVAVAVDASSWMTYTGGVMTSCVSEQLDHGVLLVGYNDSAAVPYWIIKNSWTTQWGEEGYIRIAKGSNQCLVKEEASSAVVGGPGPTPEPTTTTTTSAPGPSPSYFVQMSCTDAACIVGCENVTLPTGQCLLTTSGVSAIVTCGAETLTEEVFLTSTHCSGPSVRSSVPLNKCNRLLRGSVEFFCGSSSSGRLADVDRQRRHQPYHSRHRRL
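15 min RT preincubation of 1.5 nM cruzain with compound, then 2 uM Z-FR-AMC added; kinetic AMC fluorescence, 60 s delta. Triton X-100 0.01%, pH 5.5.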
Lassa entry inh: qHTS for Inhibitors of binding or entry into cells for Lassa Virus; Lassa virus pseudotype entry inhibition, cell reporter; control for the full effect not named in the record; Potency, µM (doses to about 37.9 µM), for inactives: top-dose activity change, negative = inhibition, actives largely listed as inhibitors; actives 1.2% (n = 300,000); active means well fitted inhibition curve with a large enough effect; inconclusive means small, poorly fitted or top-dose-only effect, or effect the other way; inactive means flat fitted curve, though single readings scatter; tested in HEK293 cells; further: on the % scale 0 is the no-effect control and ±100 the full control effect; nearly all actives have a fitted effect of over 50% in size; luciferase read-out
MARV entry inh: qHTS for inhibitors of binding or entry into cells for Marburg Virus | Marburg virus pseudotyped entry inhibition, cell reporter; control for the full effect not named in the record; about a third of the inactives were read at about 46 µM | Potency, µM (titrated, usually from 37.8 µM), inactives show top-dose activity change, negative = inhibition, actives largely listed as inhibitors | actives 1.8% (n = 300,000) | AID 540276, 2011; active = well fitted inhibition curve with a large enough effect; inconclusive = small, poorly fitted or top-dose-only effect, or effect the other way; inactive = flat fitted curve, though single readings scatter; tested in HEK293 cells; about a fifth of its hits are not listed in these tables; further: on the % scale 0 is the no-effect control and ±100 the full control effect; luciferase read-out
Cruzain noTriton: qHTS Assay for Promiscuous and Specific Inhibitors of Cruzain (without detergent); Cruzipain (Trypanosoma cruzi), P25779; purified cruzain, Z-FR-AMC fluorescence, no detergent; Potency, µM, for inactives: max response, negative = inhibition, most hits filed as inhibitors; actives 2.3% (n = 200,000); AID 1476, 2009;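 further: plate controls were enzyme without inhibitor for no effect and buffer without enzyme for full effect; nearly all actives have a fitted effect of over 40% in size; top concentration of the series not given in the record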
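Detergent-free condition (0.00005% Triton X-100) in acetate buffer pH 5.5 with DTT. 1.5 nM enzyme and compound were pre-mixed 15 min, then 2 uM Z-FR-AMC substrate added; reaction progress from fluorescence change between first and third reads (60 s).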
NS1 inh: qHTS Assay for Inhibitors of Influenza NS1 Protein Function; S. cerevisiae slowed by influenza A NS1, growth recovery by OD600; Potency, µM (top dose mostly 46.1 µM), without a hit: at the top dose activity, positive = more growth; actives 0.4% (n = 270,000); AID 2326, 2010; active means well fitted rising curve with a large enough effect; inconclusive means small, poorly fitted or top-dose-only effect; inactive means no such curve, though single readings can be large or run the other way; further: nearly all actives have a fitted effect of over 50% in size
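Compounds were scored for reversing the slow growth caused by influenza A NS1 in S. cerevisiae, measured by optical density at 600 nm. Assay medium contained 2% galactose at pH 6.0; NS1-free yeast of the same strain were the positive control.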
2A StopGo: High Throughput Screening for Foot and Mouth Disease Virus Antivirals | human cells with a luciferase reporter of 2A StopGo recoding; control for the full effect not named in the record | Potency, µM (highest dose often 57.9 µM), for the others: at the top dose signal change, negative = less light | actives 1.2% (n = 410,000) | AID 1159524, 2015; active = well fitted falling curve with a large enough effect; inconclusive = small, poorly fitted or top-dose-only effect; inactive = no such curve, though single readings can be large or run the other way; tested in HEK293T cells; further: on the % scale 0 is the no-effect control and ±100 the full control effect; nearly all actives have a fitted effect of over 45% in size; luciferase light after 4 h
The depositor's hits bear a star; u = inconclusive; x = no result given; & = joins results of further samples; [ ] = dose if it differs, or a comment. Unless noted, the call rests on the fitted dose curve; in most records, active means well fitted curve in the direction sought with a large enough effect; inconclusive means small, poorly fitted or top-dose-only effect, or another doubt; inactive means no such curve, though single readings can be large; an effect the other way counts as inactive or inconclusive. Potency means the concentration at half of the fitted maximal effect.

Every second line gives: SARS PLP yeast | RE007 growth inh | Cruzain inh Det | Lassa entry inh | MARV entry inh | Cruzain noTriton | NS1 inh | 2A StopGo
1) Cc1cc(C)nc(SCc2ccc(C(=O)O)o2)n1
  2% | 2% | 1.8% | -4% | 1% | -1% | 6% | 21%
2) Cc1ccc(SCCN2CCC(C)CCC2=O)cc1 (stereo not given)
  8% | 5% | x | x | x | x | 1% | 43%[activator]
3) CCC(NC(=O)c1cc(COc2ccc(OC)cc2Cl)on1)c1ccncc1 (stereo not given)
  -7% | -23% | x | 6% | u | x | -21% | -2%
4) O=C(Cc1ccccc1)N/N=C/c1cc(Br)cc(Br)c1O
  9% | 13% | x | u | u | x | -9% | -1%
5) CC(=O)c1ccc(N2CCN(C(=O)CCn3cnc4onc(-c5ccc(F)cc5)c4c3=O)CC2)cc1
  x | x | -1.3% | -10%[46.1 µM] | x | -15% | x | 0%
6) Cc1ccc(C2=[N+]([O-])C3(CCCCC/C3=N\NC(N)=S)N(O)C2(C)C)o1 (stereo not given)
  1% | x | -5.2% | x | 4% | -10% | -9% | x
7) COCCCNC(=O)c1cccc(C(=O)NCCCOC)c1
  -1% | -2% | 2.4% | -13%[14.3 µM] | 0% | 6% | -3% | 27%
8) Cc1cc(C)c2c(N)c(C(=O)c3cccc(Cl)c3)sc2n1
  14% | 25% | -1.8% | -1% | -5% | -15% | 7% | 8%
9) CCOc1c(Nc2ccccc2O)c(=O)c1=O
  0% | -5% | x | 1% | -2% | x | 0% | 3%
10) C/C(Cl)=C/Cn1c(N2CCCC2)nc2c1c(=O)[nH]c(=O)n2C
  12% | 9% | x | 16%[46.1 µM] | -7%[46.1 µM] | x | u | -21%
11) CCOC(=O)CSc1nc(N(C)C)nc(N(C)C#N)n1
  -3% | -4% | 16µM* | 7% | -8% | 20µM* | -7% | -18%
12) O=C(CSc1nccc(=O)[nH]1)N1c2ccccc2CCc2ccccc21
  -3% | 6% | 1.0% | u | -13% | -3% | 6% | x
13) CC(C)C(NC(=O)c1ccc(F)cc1)C(=O)NCC1CCCO1 (stereo not given)
  1% | -10% | x | x | x | x | 4% | -6%
14) c1coc(CNc2ncnc3nc[nH]c23)c1
  0% | 6% | 0.8%&0.7%&6.6%&-4.0% | -5% | 8% | -4%&-1%&4%&-7% | 0% | -30%&19%
15) O=C(COc1ccccc1Cl)Nc1nc(-c2ccncc2)cs1
  -8% | -4% | x | u | u | x | x | u
16) Cc1ccc(Cl)cc1NC(=O)C(=O)NCC(c1cccnc1)N1CCc2ccccc21 (stereo not given)
  x | x | -11% | -6%[46.1 µM] | x | 21% | x | u
17) CC(C)CCOc1ccc(Cn2c(=O)oc3ccccc32)cc1
  x | x | -1.8% | 18%[46.1 µM] | -5%[46.1 µM] | 12% | x | -23%
18) COc1ccc(-c2cnnn2-c2ccc(NC(=O)c3ccccc3OC)cc2)cc1
  x | x | -0.4% | -21%[46.1 µM] | x | -27% | x | -19%
19) O=C(C1CCN(c2nc(-c3ccccc3)nc3c2CCC3)CC1)N1CCC(O)CC1
  x | 1% | x | 11% | -8% | x | -12% | -12%
20) CCCn1c(C)cc(C(=O)COC(=O)c2c(C)nn(-c3ccccc3)c2C)c1C
  -7% | -2% | 0.8% | -29% | 1% | 24% | u | 35µM*

The closing five compounds of the part before come first, to join the parts:
Every second line gives: SARS PLP yeast | RE007 growth inh | Cruzain inh Det | Lassa entry inh | MARV entry inh | Cruzain noTriton | NS1 inh | 2A StopGo
16) Cc1ccc(Cl)cc1NC(=O)C(=O)NCC(c1cccnc1)N1CCc2ccccc21 (stereo not given)
  x | x | -11% | -6%[46.1 µM] | x | 21% | x | u
17) CC(C)CCOc1ccc(Cn2c(=O)oc3ccccc32)cc1
  x | x | -1.8% | 18%[46.1 µM] | -5%[46.1 µM] | 12% | x | -23%
18) COc1ccc(-c2cnnn2-c2ccc(NC(=O)c3ccccc3OC)cc2)cc1
  x | x | -0.4% | -21%[46.1 µM] | x | -27% | x | -19%
19) O=C(C1CCN(c2nc(-c3ccccc3)nc3c2CCC3)CC1)N1CCC(O)CC1
  x | 1% | x | 11% | -8% | x | -12% | -12%
20) CCCn1c(C)cc(C(=O)COC(=O)c2c(C)nn(-c3ccccc3)c2C)c1C
  -7% | -2% | 0.8% | -29% | 1% | 24% | u | 35µM*
21) CCOC(=O)c1cc(NC(=O)c2cccnc2)ccn1
  x | 21% | x | 8% | -3% | x | x | -10%
22) COc1ccc(OCc2nnc3n2N=C(c2ccccc2)C(CC(=O)O)S3)cc1 (stereo not given)
  0% | -8% | x | 2% | 0%[46.1 µM] | x | 10% | -13%
23) Cc1ccc(CNC(=O)c2cn(C3CCCCC3)c(=O)c3c2c2ccccc2n3C)o1
  u | -5% | -9.1% | -28% | u | 1% | 15% | u
24) CSc1ncc2c(n1)-c1ccccc1N(Cc1ccccc1)S2(=O)=O
  x | x | -0.1% | 7%[46.1 µM] | x | -10% | x | -26%
25) Cc1nc2c(=O)n(-c3cccc(C(F)(F)F)c3)nc(C)c2s1
  -4% | 13% | x | x | x | x | -4% | -11%
26) CCSc1nnc(N(CCC#N)CCC#N)s1
  7% | -1% | 1.3% | 4% | 4%&4%[46.1 µM] | 0% | 5% | -24%
27) Cc1nnc(NC(=O)CCSc2ccc(Cl)cc2)s1
  0% | -7% | x | x | x | x | 1% | -13%
28) O=C1CCCCCC1C1(O)C(=O)Nc2ccc(Br)cc21 (stereo not given)
  4% | -2% | 2.3% | 18% | -19% | 3% | 18% | 0%
29) CC(C)N(C(=O)CSc1nnc(NC(=O)c2cccs2)s1)C(C)C
  -1% | -22% | -4.2% | -5% | u | 20% | 2% | 4%
30) CCCCCc1nc2ccccc2c(=O)n1-c1ccccc1[N+](=O)[O-]
  -4% | 8% | -8.7% | 18% | -6% | 2% | -17% | -14%
31) CCOC(=O)c1c(-c2ccc(Br)cc2)csc1NC(=O)c1ccccc1F
  x | x | -5.1% | 10%[46.1 µM] | x | -2% | x | -12%
32) COCCCN=CC1=C(O)CC(c2ccccc2)CC1=O (stereo not given)
  1% | 0% | x | x | x | x | -4% | -1%
33) COc1cc(F)c(S(=O)(=O)N2CCOc3ccccc32)cc1OC
  -1% | 14% | x | x | x | x | -6% | u
34) C=CCN(CC=C)C(=O)Nc1cc(OC)ccc1OC
  -2% | 3% | x | -4%[46.1 µM] | 9%[46.1 µM] | x | 0% | 2%
35) O=C(CN1CCCc2ccccc21)N/N=C/c1ccc(O)cc1O
  u | -4% | -11% | u | u | 2% | -11% | 2%
36) COc1ccc2nc(N3CCN(C(=O)c4ccc5ncsc5c4)CC3)sc2c1
  5% | -10% | x | -13% | -5%[46.1 µM] | x | x | -29%
37) Cc1nn(CC2CC2)c(=O)n1-c1ccccc1
  0% | 1% | x | 4% | -2%[46.1 µM] | x | x | 7%
38) COc1cc(NC(=O)CN2CCN(S(=O)(=O)c3ccc(Br)cc3)CC2)cc(OC)c1
  x | x | 6.3% | u | x | 6% | x | -11%
39) COc1ccccc1/C=N/NC(=O)CNC(=O)c1ccccc1
  0% | 10% | x | x | x | x | -3% | -3%
40) Cc1cc(=O)oc2c3c(cc(OCC(=O)NCC(=O)O)c12)OC(C)(C)CC3
  2% | 5% | x | x | x | x | 4% | 0%
41) CN1CCN(NC(=O)c2cc(S(=O)(=O)N3CCOCC3)c(Cl)cc2Cl)CC1
  -13% | -1% | 0.9% | 0% | 20% | -6% | 6% | 0%
42) O=C1C(Cl)=C(NCC2CCCO2)C(=O)N1c1ccccc1 (stereo not given)
  -5% | -5% | -1.4% | -16% | -8% | -4% | -5% | 6%
43) COC(=O)c1c(NC(=O)Cc2coc3cc(C)ccc23)sc2c1CCC2
  x | x | -1.8% | 22%[46.1 µM] | u | u | x | u
44) CCOc1ccc(-c2ccc(SCC(=O)N3CCOCC3)nn2)cc1
  1% | 1% | x | -18% | u | x | x | -18%
45) COc1ccc(OCC(=O)N2CCC3(CC2)CC(=O)c2ccccc2O3)cc1
  -2% | 7% | x | -24% | -1%[46.1 µM] | x | x | -19%
46) COCCN(CCOC)S(=O)(=O)c1ccc(C(=O)Nc2sc3c(c2C(N)=O)CCCC3)cc1
  x | x | -4.1% | u | x | 9% | x | u
47) COC(=O)C1CCCN1S(=O)(=O)c1ccc2ccccc2c1 (stereo not given)
  -1% | 4% | 1.2% | -1% | u | -5% | 3% | -5%
48) COC(=O)c1ccc(-c2ncc[nH]2)cc1
  -1% | 9% | x | 1% | 7% | x | 2% | -3%
49) COc1ccc(-c2noc(N3CCC(C(=O)N4CCN(c5cccc(C)c5C)CC4)CC3)n2)cc1
  x | x | 1.6% | 13%[46.1 µM] | x | -4% | x | -30%
50) Cc1ccc2c(C)nc(NC3=NCN(CCc4ccccc4)CN3)nc2c1
  0% | x | -13% | x | 6% | -21% | -7% | x
51) CCCn1ncc(/C=N/O)c1C
  0% | 3% | x | 16% | u | x | 4% | 9%
52) COCCNS(=O)(=O)c1ccc2c(c1)C(=NO)c1cc(S(=O)(=O)NCCOC)ccc1-2
  -1% | 22% | x | x | x | x | 1% | -21%
53) Cc1cc(/C=N/NC(=O)c2ccncc2)c(C)n1-c1cccc(C(F)(F)F)c1
  -1% | 6% | x | u | -18% | x | -7% | u
54) Cc1cc(=O)[nH]c(SCC(=O)/C=C2\N(C)c3ccccc3C2(C)C)n1
  -24% | 4% | u | u | u | -11% | -6% | -10%
55) COC(=O)COc1ccc(S(=O)(=O)NCc2ccco2)cc1Cl
  -9% | -16% | 3.1% | 0% | -15% | 4% | -3% | 17%
56) COc1ccc(-c2c(NC(=O)C(C)C)n(C)c3ccccc3c2=O)cc1
  -8% | 3% | -4.5% | u | 11% | -2% | 0% | 6%

The order is random. About 4.7% of those tested had a hit in this group.
